N370S GC mod – inhibits or activates N370S mutant glucocerebrosidase. N370S GC spleen homogenate, 4MU-glucoside fluorescence. Potency, µM (highest dose often 59.4 µM), without a hit: at the top dose activity change, negative = inhibition, hits mostly inhibitors. 330,000 compounds, 0.092% hits. AID 2101;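 also: 0% = full enzyme activity and -100% = no enzyme basal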
FEN1 inh – human FEN1 inhibition. P39748. AID 588795. Potency, µM (series often up to 114 µM), for the others: at the top dose activity change, negative = inhibition, actives largely listed as inhibitors. Recombinant FEN1 flap cleavage, fluorescence, 15 min. 390,000 compounds, 0.35% hits; also: nearly all actives have a fitted effect of over 65% in size
Target sequence (P39748 whole entry, looked up): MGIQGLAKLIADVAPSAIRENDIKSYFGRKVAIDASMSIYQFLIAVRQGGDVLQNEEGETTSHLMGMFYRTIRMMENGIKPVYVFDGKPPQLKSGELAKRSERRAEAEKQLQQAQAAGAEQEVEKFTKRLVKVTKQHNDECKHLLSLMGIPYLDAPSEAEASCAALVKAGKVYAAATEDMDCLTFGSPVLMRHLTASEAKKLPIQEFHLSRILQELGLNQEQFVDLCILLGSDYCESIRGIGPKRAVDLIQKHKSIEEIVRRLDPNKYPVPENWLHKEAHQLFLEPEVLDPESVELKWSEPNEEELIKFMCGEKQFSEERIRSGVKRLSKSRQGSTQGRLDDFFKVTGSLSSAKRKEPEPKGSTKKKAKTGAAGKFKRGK
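Read-out was taken twice, immediately and after 15 min, following addition of 50 nM substrate to 10 nM FEN1 that had sat with test compound for 15 min at room temperature. Curves came from a four-parameter Hill model.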
Numbers without * were called inactive; ? = inconclusive; / = not tested or not shown; & = joins results of further samples; [ ] = dose if it differs, or a comment. Calls follow the shape of the dose curve; as a rule, active = well fitted curve in the direction sought with a large enough effect; inconclusive = small, poorly fitted or top-dose-only effect, or another doubt; inactive = no such curve, though single readings can be large; an effect the other way counts as inactive or inconclusive. Unless noted, % is scaled to controls: 0 for no effect and ±100 for the full control effect; potency is read from the fitted curve at half-maximal effect. Only part of the results is shown; most or all hits stand in other tables.

FEN1 inh	N370S GC mod	SMILES
1%	-18%	COc1ccccc1OCc1ccc(C(=O)NC2CCCCC2)o1
-23%	-1%	COc1cc(Cl)c(C)cc1NC(=O)CN(C)Cc1cccc(OC)c1OC
1%	-1%	CCC(C)NC(=O)c1ccc(C2SCC(=O)N2Cc2ccccc2)cc1 (stereo not given)
15%	?	CCn1c(NC(=O)c2cccs2)nc2ccccc21
9%	4%	Cc1cc(=O)nc2c3ccccc3n(CC(=O)NCCC3=CCCCC3)n12
-1%	/	CN(C)CCNC(=O)Cc1ccc(NC(=O)N2CCCCc3ccccc32)cc1
8%	0%	COc1cc(C)ccc1OCc1cc(C(=O)N2CCCCCC2)no1
9%	14%	Cc1cc(C)c2nc(-c3ccccn3)cc(C(=O)Nn3cnnc3)c2c1
20%	-1%	O=C(NCCN1CCCC1)c1ccc2c(c1)N(Cc1ccccc1)C(=O)c1ccccc1S2(=O)=O
-11%	9%	CCOc1ccc(NC(=O)CSc2nnc(-c3ccccn3)n2N)cc1
8%	/	Cc1cc(O)c(C(c2ccc(Cl)cc2)N2CCN(c3ccccc3)CC2)c(=O)n1Cc1ccco1 (stereo not given)
-3%	/	O=C(CCN1C(=O)C2CCCCC2C1=O)Nc1nc2ccc(F)cc2s1 (stereo not given)
5%	-4%	O=C(COC(=O)c1cccc(S(=O)(=O)NCc2ccccc2)c1)c1ccc2c(c1)OCCO2
10%	-13%[12.8 µM]	Cn1nnnc1SCC(=O)Nc1ccccc1C(=O)NC1CC1
-10%	-5%	COc1ccc(-c2cc(=O)[nH][nH]2)cc1
-1%	25%	O=C(Nc1ccon1)C1CCN(S(=O)(=O)c2cccs2)CC1
-2%	-7%	CCN(Cc1nc2ccccc2c(=O)[nH]1)C(=O)c1cccc(OCc2c(C)noc2C)c1
-2%	/	O=C(CN1N=C(c2ccccc2)CCC1=O)NCc1ccc(F)cc1Cl
0%	-9%	COCCCN1C(=O)C(O)=C(C(=O)c2ccco2)C1c1ccc(Br)cc1 (stereo not given)
0%	?	Cc1ccccc1C(=O)Nc1nnc(-c2ccncc2)o1
-12%	6%	COc1ccccc1NC(=S)NNC(=O)c1cc(C)nn1C
1%	-10%	CC(=O)Oc1ccc(C(=O)Cc2ccccn2)c(O)c1
-8%	2%	CC1CCCN(S(=O)(=O)c2ccc(C(=O)Nc3nnc(-c4ccccn4)o3)cc2)C1 (stereo not given)
8%	-1%	CCC(C)[C@H](NC(=O)N1CCCCCC1)C(=O)O (stereo not given in full)
-15%	/	Cc1ccc(-c2noc(CN(C3CCCCC3)S(=O)(=O)c3ccc(F)cc3)n2)cc1
-6%	11%	CCn1c(SCC(=O)Nc2cccc(C)c2)nc2c(c1=O)SC(C)C2 (stereo not given)
/	2%	COc1ccccc1CN1CCCC2(CCN(C(=O)c3ccco3)CC2)C1
0%	/	O=C(COC(=O)C1CC(=O)N(Cc2ccco2)C1)Nc1ccc(F)cc1F (stereo not given)
-1%	3%	CCN(Cc1cnn(C)c1)C(=O)c1ccc2nc(Cc3cccc(Cl)c3)oc2c1
3%	-18%	Cc1c(C(=O)O)[nH]c2c1C(=O)CC(c1ccccc1)C2 (stereo not given)
-10%	?	O=C(COc1ccccc1Cl)Nc1ccc2c(c1)OCO2
11%	7%	N/C(=N\OC(=O)CCCOc1ccccc1)c1ccccn1
/	0%[21.6 µM]	CC(=O)O[C@H]1C[C@H]2CC[C@@H]3[C@@H](CC[C@]4(C)[C@H](OC(C)=O)[C@H]([N+]5(C)CCCCC5)C[C@@H]34)[C@]2(C)C[C@H]1[N+]1(C)CCCCC1
16%	22%	COc1ccc2cc(-c3nc4ccccc4n3C)c(=O)oc2c1
7%	/	Cc1ccc(NC(=O)c2nnn(CC(=O)Nc3ccc(C)c(Cl)c3)c2N)c(C)c1
8%	-8%	COc1ccc(Cl)cc1NC(=O)CN1CCC(NC(=O)C2CC2)CC1
-5%	-15%	O=[N+]([O-])c1ccc2nc(SCc3cn4cccnc4n3)[nH]c2c1
0%	-2%	CCN(CC(=O)Nc1cc(Cl)ccc1C)C(=O)c1ccc2c(=O)n3c(nc2c1)CCC3
11%	-3%	COc1ccc(C(C(=O)NCC2CCCO2)N(C(=O)Cn2nnc3ccccc32)c2ccc(NC(C)=O)cc2)cc1OC (stereo not given)
/	3%	O=S(=O)(c1ccccc1)N1CCC(N2CCN(c3ccccc3)CC2)CC1
12%	15%	COC(=O)CCc1c(COC(C)=O)[nH]c(C(=O)OCc2ccccc2)c1C
2%	2%	O=C(O)c1cc(NS(=O)(=O)c2cccc3ccccc23)ccc1O
-3%	-12%	COc1ccc(NC(=O)c2cc(C)nc3ccccc23)cc1S(=O)(=O)Nc1ccccc1Cl
2%	4%	O=C(NCc1ccccn1)C1CC(c2ccc(Cl)c(Cl)c2)=NO1 (stereo not given)
-4%	-10%	CCCC(=O)N1CCN(c2nc3ccc(CC)cc3s2)CC1
-3%	5%	C=C(C)C1CC=C(C)/C(=N/NC(=O)c2ccc(NC(=O)CCC)cc2)C1 (stereo not given)
10%	1%	CCC(c1nnc(SCCNCCO)n1CCN1CCOCC1)N(C)C (stereo not given)
11%	-6%	O=C(NCCCNc1ccnc2cc(Cl)ccc12)c1ccccc1F
-17%	?	COc1ccc(/C=C2\N=C(c3ccccc3Cl)NC2=O)cc1
2%	7%	COc1cccc(CNC(=O)CN(C)S(=O)(=O)c2ccc3c(c2)n(C)c(=O)c(=O)n3C)c1
-5%	-25%	Cc1ccc(NC(=O)CCNS(=O)(=O)c2ccc3[nH]c(=O)oc3c2)c(C)c1
1%	0%	CCCCn1c(N)c(N(CCOC)C(=O)c2ccc(-c3ccc(Cl)cc3)o2)c(=O)[nH]c1=O
26%	21%	Cc1cc(C(=O)Nc2cc(C(C)(C)C)on2)c(C)o1
-4%	4%	O=C(O)Cn1c(=S)sc2ccccc21
3%	-9%	CC(=O)N1CCN(C(=O)c2cccc(S(=O)(=O)Nc3c(C)n(C)n(-c4ccccc4)c3=O)c2)CC1
14%	-14%	O=C(CNc1cccc(F)c1)N1CCc2ccccc2C1
-10%	/	CCOc1cc(CNc2ccc(C(=O)O)cc2)ccc1OCc1ccccc1
-8%	-16%	O=C(/C=C/c1ccccc1O)c1ccco1
-20%	?	COc1ccc(-c2cc(OC)c3ccccc3n2)cc1
2%	?	CC(=O)Nc1cc(NC(C)=O)c2nc(N)sc2c1

Molecules shown so far containing an NH in an aromatic ring, in the order listed:
FEN1 inh	N370S GC mod	SMILES
-10%	-5%	COc1ccc(-c2cc(=O)[nH][nH]2)cc1
-2%	-7%	CCN(Cc1nc2ccccc2c(=O)[nH]1)C(=O)c1cccc(OCc2c(C)noc2C)c1
3%	-18%	Cc1c(C(=O)O)[nH]c2c1C(=O)CC(c1ccccc1)C2 (stereo not given)
-5%	-15%	O=[N+]([O-])c1ccc2nc(SCc3cn4cccnc4n3)[nH]c2c1
12%	15%	COC(=O)CCc1c(COC(C)=O)[nH]c(C(=O)OCc2ccccc2)c1C
-5%	-25%	Cc1ccc(NC(=O)CCNS(=O)(=O)c2ccc3[nH]c(=O)oc3c2)c(C)c1
1%	0%	CCCCn1c(N)c(N(CCOC)C(=O)c2ccc(-c3ccc(Cl)cc3)o2)c(=O)[nH]c1=O

Compound profiles (already shown):
Entry for Cc1cc(C(=O)Nc2cc(C(C)(C)C)on2)c(C)o1 = FEN1 inh: 26%; N370S GC mod: 21%
Entry for O=C(/C=C/c1ccccc1O)c1ccco1 = FEN1 inh: -8%; N370S GC mod: -16%

Next section
FEN1 inh	N370S GC mod	SMILES
-1%	2%	CCN(CC)CC(=O)N1c2ccccc2Oc2c(c(=O)n(C)c(=O)n2C)C1c1cccc([N+](=O)[O-])c1 (stereo not given)
-7%	-14%	O=C(Nc1c(-c2ccccc2)nc2c(Br)cc(Br)cn12)c1ccco1
-1%&-7%	6%	CCOC(=O)c1ccccc1NC(=O)COc1cc(=O)n(CC)c2ccccc12
1%	0%	COc1ncccc1C(=O)N1CCCC(C(=O)c2cc(F)ccc2F)C1 (stereo not given)
2%	-8%	Cc1c(C(=O)NCc2c(F)cc(F)cc2F)oc2ccc(S(=O)(=O)N3CCOCC3)cc12
-4%	-7%	O=C(CN(Cc1ccc(F)cc1)C(=O)CCC(=O)Nc1nccs1)NCc1ccc(F)cc1
-8%	0%	Cc1n[nH]c(=O)c2c(NC(=O)COC(=O)/C=C/c3cccc(C(F)(F)F)c3)oc(C)c12
-3%	?	CCOc1ccc(NC(=O)CSc2nnc(CNC(=O)c3ccco3)o2)cc1
-10%	-4%	CCC(=O)c1ccccc1OCCCn1cncn1
2%	5%	COCCCn1c(SCC(=O)N2CCc3ccccc32)nnc1-c1ccco1
2%	10%	O=C(NCC1(c2ccccc2)CCCC1)C(=O)N1CCOCC1
-7%	5%	COc1cc(/C=C2/C(=O)NN(c3cccc(C)c3)C2=O)ccc1OC(=O)c1ccco1
-13%	-8%	CC(NS(=O)(=O)c1ccc2c(c1)CC(C)N2C(=O)C1CC1)c1ccccc1 (stereo not given)
-3%	-1%	COCCOc1cc(NC(=O)CS(=O)(=O)CC(=O)N(C)C)c(Cl)cc1Cl
-19%	-7%	CCOC(=O)CSCC(=O)Nc1c(C(=O)C2CC2)oc2ccccc12
3%	/	CC(Sc1nnc(C2CC2)n1C1CC1)C(=O)NC1(C#N)CCCCC1 (stereo not given)
-15%	/	CSc1nnc(SCC(=O)Nc2ccc3[nH]c(=O)[nH]c3c2)s1
0%	26%	c1ccc(CSc2nnc(-c3cccs3)n2Cc2ccco2)cc1
-3%	-6%	CC(C)CCNC(=O)C1CCN(S(=O)(=O)c2ccc3c(c2)CC(C)N3C(=O)C2CC2)CC1 (stereo not given)
-2%	-1%	COc1ccc(NC(=O)NCc2ccco2)cc1OC
2%	2%	CCN1C(=O)/C(=C2/Sc3ccc(OC)cc3N2C)SC1=Nc1ccc(OC)cc1
0%	8%	CCCCC/C(=N\NC(=O)Nc1ccccc1)c1ccccc1
2%	0%	CCn1c(CNc2ccc(C)cc2)nnc1SCC(=O)NCc1ccccc1
-1%	/	CN(CC(=O)Nc1ccc(OC(F)(F)F)cc1)C(=O)C1CCC1
15%	7%	COc1ccc(-n2cc(CN(C)CCO)c(-c3cccc(F)c3)n2)cc1
5%	3%	Cc1nc(SCC(=O)NCC2CCCO2)c2oc3ccccc3c2n1 (stereo not given)
-6%	4%	Cn1c(C(=O)NCc2cccs2)cc2oc3ccccc3c21
-4%	6%	O=C(Nc1cccnc1)c1cc2nc(C3CC3)cc(C(F)(F)F)n2n1
-3%	6%	CC(C)N1CCC(N2CCN(Cc3nc4ccccc4s3)CC2CCO)CC1 (stereo not given)
-5%	4%	CCC(=O)n1nc(-c2ccc(Cl)cc2)nc1NCc1ccccc1
7%	1%	COc1ccc2c(c1)CCc1c(C(=O)NCCCn3ccnc3)noc1-2
11%	-6%	COc1ccc(OC)c(N/C=C/C(=C(C#N)C#N)N(C)C)c1
/	13%	Cn1c(=O)c2c(nc(CN3CCN(c4ccccc4)CC3)n2Cc2ccccc2F)n(C)c1=O
-11%	2%	CNC(=S)N=Nc1c(O)[nH]c2ccc(C(C)C)cc12
6%	2%	Cc1[nH]c(=O)c(C#N)c2c1COC(C)(C)C2
-3%	-2%	Cc1ccc(S(=O)(=O)N2CCN(C(=O)c3cccc(-n4cccc4)c3)CC2)cc1
0%	3%	Cc1ccc(C(=O)N2CC(=O)Nc3ccc(F)cc3C2c2ccc(F)cc2)cc1[N+](=O)[O-] (stereo not given)
-2%	26%	COc1cc(Br)cc(CNc2ccc(F)c([N+](=O)[O-])c2)c1O
7%	-13%	COc1ccc(/C=N/Nc2nc(C)cc(-c3ccccc3)n2)c(OC)c1
15%	0%	CCOC(=O)N1CCN(S(=O)(=O)N2CCCC(C(=O)NCc3ccc(F)cc3)C2)CC1 (stereo not given)
-1%	4%	CSc1ccccc1OCc1cc(C(=O)NCCN2CCCC(O)C2)no1 (stereo not given)
-2%	-16%	CN(CCO)C(=O)c1c(NC(=O)c2ccccc2)sc2c1CCCC2
0%	?	Cc1ccc(NC(=O)COc2cccc(/C=C3\SC(=S)N(CCC(=O)O)C3=O)c2)cc1Cl
10%	/	Cc1cc(-c2nc3ncccc3o2)ccc1NC(=O)COc1ccc(C(C)(C)C)cc1
-1%	2%	CCOC(=O)c1cnc2c(c(C)nn2CC)c1NC1CC1
16%	-2%	COc1ccccc1-n1c(O)c(C=NCc2ccccn2)c2ccccc2c1=O
-1%	-10%	COc1ccc(C2C(C#N)=C(N)N(c3cccnc3)C3=C2C(=O)CCC3)cc1Cn1cc([N+](=O)[O-])cn1 (stereo not given)
4%	29%	CN(C)c1nnnn1-c1ccc(Cl)cc1Cl
-3%	-15%	COc1ccc(NC(C)=O)cc1NC(=O)c1cccc(S(=O)(=O)N2CCN(Cc3ccccc3)CC2)c1
6%	-9%	CN(C)/C=C1\NC(=S)N(c2ccccc2)C1=O
14%&-6%	-7%	Cc1cc2oc(C(=O)NCCc3ccc(S(N)(=O)=O)cc3)cc(=O)c2cc1C
5%	12%	CN(C)S(=O)(=O)c1cccc(C(=O)N=C2N=C3C=CC(Cl)=CN3Cc3ccccc32)c1
9%	-3%	Cc1ccc(NC(=S)NC2CCCC2)c(C)c1
-7%	2%	CC(C)CCC(C)NC(=O)C1CCN(S(=O)(=O)/C=C/c2ccccc2)CC1 (stereo not given)

Source: PubChem
